Calb FLC: C. albicans growth modulation with fluconazole. growth inhibition, % (concentration not given with the values). 0.57% of 300,000 active. C. albicans CaCi-2 (fluconazole-resistant clinical isolate) + fluconazole, Alamar Blue growth, 48 h;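 active = most replicates above 75%; inconclusive = exactly half above 75%; inactive = most below 75%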;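 also: all wells also contain fluconazole at 8 µg/ml as a sub-toxic cotreatment; 0% = median of DMSO wells and 100% = median of geldanamycin control wells; wells of about 8 µL received 7.5 nL stock; the first replicate is given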
FGF22 binding: shifts melting point of recombinant human FGF22; AID 651658; recombinant FGF22 thermal shift, SYPRO orange fluorescence; percent of sucrose octasulfate shift, DMSO zero; 1.5% of 340,000 active; Q9HCT0; calls only at 9.99 µM;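 active = melting point raised past a set limit in the mean and every replicate; inconclusive = no clear call; three in four hits are not shown here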
Target sequence (Q9HCT0 whole entry, looked up): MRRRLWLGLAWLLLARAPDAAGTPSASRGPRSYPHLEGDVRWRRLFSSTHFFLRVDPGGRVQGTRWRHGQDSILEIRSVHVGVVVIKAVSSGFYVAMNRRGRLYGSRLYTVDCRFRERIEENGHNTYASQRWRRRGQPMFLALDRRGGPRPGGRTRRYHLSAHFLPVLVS
T cruzi inh: blocks replication of Trypanosoma cruzi. T. cruzi beta-gal in NIH3T3, luminescence, 90 h. inhibition, % (no concentration beside the values). 1.4% of 300,000 active. AID 1885;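 active = mean inhibition across valid replicates above about 55%, limit read from the data; inconclusive = mean below that limit but half or more replicates reach it; inactive = mean below it, under half of replicates reach it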;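 also: signal also drops with host cell toxicity which is not excluded here; 0% = plate median of DMSO wells and 100% = zero luminescence signal; higher percent means less beta-gal luminescence so fewer parasites; stock transfer was 50 nL into about 50 µL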
ALR H2O2 inh: human ALR oxidase inhibition via reduced H2O2; 3.8% of 290,000 active; inhibition, % (no concentration beside the values); purified ALR, DTT oxidation, H2O2 HRP-luminol luminescence; P55789;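 active = mean and each replicate at 75% or more; inconclusive = only one of the two met; inactive = neither met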;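 also: stock transfer was 7.5 nL into about 7.5 µL; 0% = neutral wells and 100% = wells with inactivated enzyme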
Target sequence (P55789 whole entry, looked up): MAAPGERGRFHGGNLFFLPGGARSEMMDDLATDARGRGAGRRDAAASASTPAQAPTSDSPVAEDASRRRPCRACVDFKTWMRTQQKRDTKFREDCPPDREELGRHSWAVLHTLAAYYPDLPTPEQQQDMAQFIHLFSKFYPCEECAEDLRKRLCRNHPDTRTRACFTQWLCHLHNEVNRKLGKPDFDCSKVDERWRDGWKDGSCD
rRNA inh HTS: inhibits bacterial ribosomal RNA function over humanized ribosomes. GFP signal change (wild-type ribosome), % (concentration not given with the values). E. coli WT GFP vs humanized-ribosome RFP mutants, fluorescence, 24 h; stronger effect = lower value; DMSO median 0, no signal -100. 1.6% of 350,000 active;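 active = significant combined selectivity score with lowered wild-type GFP, culture density cut under 30%, mutant RFP and density less affected; inactive = any of these conditions unmet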; also: one replicate is shown; some compounds called inactive have numbers as strong as hits
Beta apoptosis: blocks beta cell apoptosis; INS-1E cytokine-induced death, ATP luminescence, 48 h; percent of positive-control rescue, neutral wells zero; protection from apoptosis, % (no concentration beside the values); 0.8% of 300,000 active; AID 435005;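 active = all replicates at 75% or more, or half of them and the mean; inconclusive = half reach 75% but not the mean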;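 also: 0% = cytokine-treated negative control wells and 100% = positive control rescue; higher means more ATP so stronger rescue from cytokine killing; wells of about 40 µL received 100 nL stock; the first replicate is given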
AF4-AF9 inh: blocks AF4 peptide binding to human AF9. inhibition, % at 10 µM. AlphaScreen, biotin-AF4 peptide binding to FLAG-AF9. 0.47% of 350,000 active;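 active = every replicate reaching a set inhibition limit, whatever the replicate mean, cut at about 25% in these data; inconclusive = mean inhibition reaches that limit but some replicates miss it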;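 also: 0% = plate neutral control median and 100% = total signal loss; the record names both 10 and 1 µM as test concentration; the first replicate is given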
Target sequence (P42568 whole entry, looked up): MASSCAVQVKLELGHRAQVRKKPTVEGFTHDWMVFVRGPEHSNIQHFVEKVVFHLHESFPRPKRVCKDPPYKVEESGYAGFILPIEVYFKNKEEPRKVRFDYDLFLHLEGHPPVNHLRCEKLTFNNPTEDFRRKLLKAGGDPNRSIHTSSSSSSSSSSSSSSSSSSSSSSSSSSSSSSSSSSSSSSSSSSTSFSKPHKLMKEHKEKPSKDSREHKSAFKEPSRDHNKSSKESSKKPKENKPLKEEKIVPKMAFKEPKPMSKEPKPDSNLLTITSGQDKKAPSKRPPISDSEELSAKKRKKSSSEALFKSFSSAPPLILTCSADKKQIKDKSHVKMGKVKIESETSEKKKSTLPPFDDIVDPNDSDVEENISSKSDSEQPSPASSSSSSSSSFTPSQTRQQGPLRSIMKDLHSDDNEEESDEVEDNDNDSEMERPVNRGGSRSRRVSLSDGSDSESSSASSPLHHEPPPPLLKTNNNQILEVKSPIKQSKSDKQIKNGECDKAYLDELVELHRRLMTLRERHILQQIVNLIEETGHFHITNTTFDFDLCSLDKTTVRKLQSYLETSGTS
RanGTP-Imp inh: disruptors of Ran-importin-beta complex formation – biochemical, FRET, CFP-Ran, YFP-importin-beta, homogeneous, primary screen. cell-free CFP-Ran/YFP-importin-beta FRET ratio. inhibition, % (concentration not given with the values). 1.1% of 300,000 active. AID 2216;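 active = most replicates above 15%; inconclusive = exactly half above 15%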;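 also: 0% = DMSO wells and 100% = Ran loaded with GDP instead of GTP; wells of about 40 µL received 100 nL stock; the first replicate is given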
rRNA inh HTS OD600: also measured in rRNA inh HTS; calls as there; OD600 change, %; measured here: OD600 growth;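 optical density of the mix in the first replicate; 0 = DMSO median and -100 = no signal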
rRNA inh HTS RFP: recorded beside rRNA inh HTS, whose call it bears; RFP signal change, %; measured here: RFP humanized mutant strains;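 first replicate; 0 = DMSO median and -100 = no signal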
* marks the source's active call; other numbers are inactive results; i = inactive; ? = inconclusive; nt = no result given. Only part of the results is shown; rates above refer to the full screens.

SMILES	Calb FLC	FGF22 binding	T cruzi inh	ALR H2O2 inh	rRNA inh HTS	rRNA inh HTS OD600	rRNA inh HTS RFP	Beta apoptosis	AF4-AF9 inh	RanGTP-Imp inh
COc1ccccc1CCNC(=O)C(=O)NCC1OCCN1S(=O)(=O)c1cc(F)ccc1F (stereo not drawn)	-9	i	-5	nt	-2	-14	-3.3	5	4.1	3.2
CCC(CC)Nc1ccc(C(CC(N)=O)NC(=O)Cc2ccc(Br)cc2)cc1[N+](=O)[O-] (stereo not drawn)	-6	i	14	4	8	10	-5.3	-8	-0.2	-5.6
COc1cccc(N(C(=O)Cn2nnc(-c3cccs3)n2)C(C(=O)NC2CCCCC2)c2ccncc2)c1 (stereo not drawn)	-3	nt	-11	1	nt	nt	nt	-4	nt	0.0
O=S(=O)(c1cccc(C(F)(F)F)c1)N1CCC(O)(c2cccnc2)CC1	5	nt	0	-1	nt	nt	nt	1	nt	-5.0
Cc1cc(NC(=O)CN2CCCCC2C)no1 (stereo not drawn)	-3	nt	-9	0	nt	nt	nt	-7	nt	-0.7
CC(=O)N(CN1C(=O)c2ccccc2C1=O)c1cccc(C)c1	-12	nt	-6	-1	nt	nt	nt	-2	nt	0.9
Cn1c(SCC(=O)NC2CCCCC2)nnc1-c1ccccn1	-1	i	19	1	2	9	-3.7	-2	-1.6	7.3
Clc1ccc(-c2nnc(C3CCCCC3)o2)cc1	-18	nt	2	-10	nt	nt	nt	-1	nt	0.3
O=C(O)CCCC(=O)Nc1ccc(-n2ccc(C(F)(F)F)n2)cc1	-1	i	19	4	4	0	1.1	1	-1.7	-4.9
CCC(C)NC(=O)CCC(=O)NNc1nc2ccccc2c2nc(C)nn12 (stereo not drawn)	-3	i	-10	64	16	12	-0.6	-2	-4.6	-1.7
CCCOc1ccc(CNC(=O)Cc2cccs2)cc1	-4	i	-7	9	-6	-8	-17	-10	3.8	-2.0
CCCCc1c(C)nc2cc(-c3ccco3)[nH]n2c1=O	-2	i	19	0	-1	12	-0.9	-1	-4.8	?
O=C(O)c1cc([N+](=O)[O-])ccc1N1CCC(Cc2ccccc2)CC1	45	nt	1	1	14	6	-2.1	-1	-1.4	nt
COc1ccc(S(=O)(=O)N2CCN(CC(=O)c3[nH]c(C)c(C(C)=O)c3C)CC2)cc1OC	nt	i	nt	nt	2	8	1.2	-4	1.1	nt
CN(c1ccccc1C(N)=O)S(=O)(=O)c1ccccc1	-14	nt	5	3	nt	nt	nt	-1	nt	-0.5
Cc1cc(Nc2ccccc2C(=O)O)nc2nc3ccccc3c(=O)n12	0	nt	7	36	nt	nt	nt	-4	nt	1.0
Cc1ccc(-n2nc(C)c3c(C)c(CCC(=O)O)c(C)nc32)cc1	-4	i	2	5	-8	-4	-14	2	-2.4	1.9
N#Cc1c(N2CCOCC2)nsc1-c1ccccc1	-17	i	-6	5	-2	1	-1.6	-2	1.3	-2.0
C/C(=N/Oc1nc(C)cc(C)n1)c1ccc(F)cc1	1	nt	-1	0	nt	nt	nt	2	nt	0.4
CCOc1ccc(C(=O)NCC(=O)OCC(=O)Nc2nnc(-c3ccccc3)o2)cc1	nt	i	nt	6	1	0	0.6	2	0.5	nt
CN1CCCN(C(=O)c2cc(=O)[nH]c3ccccc23)c2nc3ccccc3nc21	28	nt	7	2	nt	nt	nt	-10	nt	5.8
O=C(CSc1nnc(CNC(=O)c2c(F)cccc2F)o1)Nc1ccc2c(c1)OCO2	-10	i	-9	98*	4	1	-0.3	0	-0.6	0.2
O=[N+]([O-])c1cc(-c2ccc(/C=N/n3cnnc3)o2)ccc1Cl	9	i	18	15	-1	-3	11	0	8.3	-0.3
CCOc1ccc2oc(C(=O)N(CC)CC(=O)Nc3c(F)cccc3F)c(C)c2c1	7	i	-1	-7	5	6	-0.2	-2	-1.2	-3.1
Cc1cc(C)n(CCCN2C(=O)c3cccc4cccc(c34)C2=O)n1	8	i	21	1	-12	-15	-2.9	2	3.0	-4.2
CCCCSc1nc2sc3c(c2c(=O)n1-c1ccc(C)cc1)CCN(C)C3	7	i	?	-8	-64	-74	-8.7	134*	11	-9.3
CN1CCN(C2=C(Cl)C(=O)N(c3ccc(Cl)c(Cl)c3)C2=O)CC1	17	nt	-23	40	nt	nt	nt	-5	nt	-3.9
COC/C=C/C1=CC2=CC(=O)C(C)(OC(=O)c3cnc4ccccc4n3)C(=O)C2=CN1c1ccc(OC)cc1 (stereo not drawn)	-1	nt	6	-19	nt	nt	nt	-6	nt	0.0
CC(=O)C1=C(O)C(=O)N(Cc2ccccc2)C1c1ccccc1F (stereo not drawn)	13	nt	-17	-9	nt	nt	nt	-3	nt	3.6
COc1ccc(C(=O)C2CCCN(C(=O)CCc3scnc3C)C2)c(C)c1 (stereo not drawn)	19	i	23	-6	-3	5	2.9	nt	-1.5	-3.8
Cn1c(=O)cc(OCCCC(=O)NCc2cccnc2)c2ccccc21	3	i	-10	-2	22	16	3.7	0	-2.7	?
CC(=O)c1ccc(NC(=O)N2CCN(c3cccc(Cl)c3)CC2)cc1	?	nt	0	-1	nt	nt	nt	nt	nt	-3.1
CC[C@H]1OC(=O)[C@H](C)[C@@H](O[C@H]2C[C@@](C)(OC)[C@@H](O)[C@H](C)O2)[C@H](C)[C@@H](O[C@@H]2O[C@H](C)C[C@H](N(C)C)[C@H]2O)[C@](C)(O)C[C@@H](C)C(=O)[C@H](C)[C@@H](O)[C@]1(C)O	nt	i	-5	9	nt	nt	nt	-2	-3.3	-2.5
Cc1ccc2c(c1)N(C(C)C(=O)NCc1ccc3c(c1)OCO3)C(=O)CO2 (stereo not drawn)	-10	i	-3	-38	-1	14	2.5	0	nt	3.5
Nc1cc(S(=O)(=O)N2CCCCC2)ccc1Oc1ccccc1	6	nt	3	-1	-31	-48	9.6	5	0.9	10
CC(=O)c1ccc(C(=O)N2CCCC(C(=O)c3ccc(Cl)cc3)C2)s1 (stereo not drawn)	-10	i	5	0	-11	-13	-1.8	-6	3.3	-2.3
Cc1ccccc1Cn1cc(NC(=O)COc2ccccc2)cn1	-9	nt	0	-8	nt	nt	nt	2	nt	-0.5
COC(=O)c1cccc(-n2[nH]nnc2=S)c1	-9	nt	-18	3	nt	nt	nt	-9	nt	?
C=CCNC(=O)/C(=C/c1cccc([N+](=O)[O-])c1)NC(=O)c1ccco1	-4	i	-5	1	8	7	-7.9	-11	-0.6	-0.5
Cc1ccc(C(=O)CSc2ncnc3sc4c(c23)CCCC4)cc1	-4	nt	26	-20	nt	nt	nt	-6	nt	-4.1
O=C(c1ccc(COc2ccccc2Cl)o1)N1CCOCC1	-8	i	11	1	-7	-7	-0.8	0	0.1	?
CC(C)N1CCN(Cc2ccc(OCc3ccccc3)cc2)CC1CCO (stereo not drawn)	1	i	22	nt	6	5	1.2	7	8.5	6.0
COC(=O)c1cc(NC(=O)Cc2ccccc2[N+](=O)[O-])cc(C(=O)OC)c1	0	nt	8	-3	nt	nt	nt	-13	nt	-3.1
CCOC(=O)CC1(NC(=O)C2CCC(=O)N(CCc3ccccc3)C2)CCCCC1 (stereo not drawn)	-5	i	2	-2	8	6	-0.7	-5	-3.7	0.5
O=C(Nc1ncc(Cc2cc(Cl)ccc2Cl)s1)c1ccc([N+](=O)[O-])cc1	-2	nt	57*	-13	nt	nt	nt	27	nt	6.6
O=C(CC(CC(=O)c1ccccc1)C(=O)O)c1ccccc1	-7	nt	-29	1	nt	nt	nt	-2	nt	5.0
CCN(c1ccccc1)S(=O)(=O)c1cccc(C(=O)NCC2(N(C)C)CCCCC2)c1	nt	i	nt	-2	2	-6	0.5	-1	2.7	nt
Nc1c2c(nc3ccn(-c4ccccc4)c(=O)c13)CCCCC2	-11	nt	6	2	2	8	-1.2	-4	nt	7.0
Cc1cc(C)c(S(=O)(=O)N2CCC(C(=O)OCc3c(C)noc3C)CC2)c(C)c1	nt	i	nt	-4	-4	-41	-2.3	-5	0.3	nt
COc1ccc(S(=O)(=O)N2CCN(Cc3c[nH]c4ccccc34)CC2)cc1	7	nt	-29	-4	nt	nt	nt	16	nt	1.1
CC(NCc1ccc(OCc2ccc(Cl)cc2)cc1)C(O)c1ccccc1 (stereo not drawn)	-3	nt	45	-9	-57	-80	-34	35	9.1	-3.1
CCCCC[C@@H]1C=C(C(=O)O)[C@H](c2ccc(OC)c(OC)c2)N1S(=O)(=O)c1ccc(C)cc1	nt	i	nt	nt	-1	-2	-0.5	-1	-2.1	nt
Cc1cs/c(=N\N=C\c2ccc(O)cc2)n1Cc1ccco1	-4	nt	-6	99*	nt	nt	nt	-10	nt	-3.0
O=C(c1cnc2ccc(Cl)cc2c1Cl)N1CCOCC1	0	i	-7	nt	12	11	3.8	nt	0.9	2.1
Cc1ccc(N2CCCn3c2cc(C)c(C#N)c3=O)cc1C	6	nt	3	-5	19	12	1.2	2	nt	?
Cc1ccc(OCCn2cccn2)c(C)c1	2	i	-7	-8	5	5	-0.9	13	-4.2	-0.6
OC[C@H]1O[C@H](OCc2ccccc2)[C@H](O[C@@H]2OC[C@@H](O)[C@H](O)[C@H]2O)[C@@H](O)[C@@H]1O	-6	i	-11	-11	7	-3	-5.1	0	-1.5	-0.5
CCc1c(C(=O)N/N=C/c2cccs2)nnn1-c1nonc1N	-1	i	3	2	-2	9	-1.5	7	-2.5	?
Cn1c(=O)oc2cc(S(=O)(=O)NCCN3CCN(c4ccccc4)CC3)ccc21	4	i	-11	nt	0	3	-2.6	-1	8.7	-0.5
CCn1c(SCC(=O)Nc2ccc(OC)c(OC)c2)nnc1-c1cccs1	0	nt	-13	-3	nt	nt	nt	3	nt	-3.0

(listing goes on)
SMILES	Calb FLC	FGF22 binding	T cruzi inh	ALR H2O2 inh	rRNA inh HTS	rRNA inh HTS OD600	rRNA inh HTS RFP	Beta apoptosis	AF4-AF9 inh	RanGTP-Imp inh
COc1ccccc1-c1c(C)nn2c(C)cc(C)nc12	-5	i	-9	nt	-3	-7	-4.4	-1	-3.8	-3.3
Cn1c(=O)[nH]c(=O)c2c1nc(N1CCCC1)n2CCCSc1nc2ccccc2o1	8	nt	12	5	nt	nt	nt	2	nt	-0.2
CCSc1nc(CC)c2c(c1C#N)CCCC2	-1	nt	33	-2	nt	nt	nt	-5	nt	6.1
Cc1cccc(NC(=O)CCS(=O)(=O)c2ccc3c(c2)oc(=O)n3C)c1	1	i	-1	-7	5	0	-2.2	2	0.7	-0.4
COc1ccc(CCN2C(=O)c3[nH]nc(-c4ccccc4O)c3C2c2ccc(C)cc2)cc1OC (stereo not drawn)	53	nt	36	1	nt	nt	nt	21	nt	-1.1
O=C(NNC(=S)NC1CCCCC1)c1ccccc1Cl	?	i	-33	40	-5	1	-0.8	-1	1.9	4.9
CC(C)OCCCNC(=O)Cn1ccc2cc(S(=O)(=O)N3CCCCCC3)ccc21	2	i	-8	0	14	4	0.7	6	0.6	0.4
COc1ccc(/C(C)=N/OC/C(O)=C(\C#N)c2nc3ccccc3[nH]2)c(OC)c1	3	i	-16	-5	6	3	1.2	1	-1.3	2.1
N#C/C(=C(/O)c1ccc([N+](=O)[O-])cc1)c1nnc2n1CCCCC2	-5	nt	-10	0	8	5	-10	-2	-8.4	-3.6
COc1cc(C(=O)NC(=S)Nc2ccc([N+](=O)[O-])cc2C)cc(OC)c1OC	2	i	6	9	20	12	-4.7	6	-0.1	1.8
O=C(N[C@@H](Cc1ccccc1)C(=O)O)c1cccs1	2	i	-6	-1	2	1	1.4	0	-1.7	4.4
